Screens as filed in PubChem.
LANA-nucl inh = inhibitors of KSHV LANA binding to nucleosomes. FITC-LANA1-23 / chicken nucleosome fluorescence polarization; stronger effect = lower value. z-score (no concentration beside the values). hit rate 0.3% among 51,000;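 active = both repeat wells score below -2 in polarization z-score versus plate sample wells, excluding overly bright wells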;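 note: 100 nL library stock added to about 30 µL; numbers are from one replicate; some results filed as inactive read as strong as hits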
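Test system: purified chicken nucleosomes with FITC-labelled LANA N-terminal peptide (1-23); Input: 240 nM purified chicken nucleosomes (480 nM peptide binding sites), final; Medium: TEN-BT buffer, pH 7.5; Timing: 10–45 min, room temperature; Technique: fluorescence polarization, 480 nm excitation, 535 nm parallel and perpendicular emission; Replication: duplicates.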
BasE inh = inhibitors of Acinetobacter baumannii siderophore enzyme BasE; purified BasE, fluorescence polarization binding displacement; inhibition, % (concentration not given with the values); hit rate 0.1% among 84,000; AID 485350;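 active = both replicates above 25% with normal brightness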;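 note: 0% = negative plate control signal and 100% = positive plate control signal; stock transfer was 100 nL into about 30 µL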
* marks the source's active call; other numbers are inactive results. The list is partial, so the mix of outcomes need not match the whole.

What do the screens show for `O=C(CN1C(=O)c2ccccc2C1=O)Nc1cccnc1`?
LANA-nucl inh: 0.53; BasE inh: -0.4

How did CC(=O)Nc1ccccc1Br do in these assays?
LANA-nucl inh: 0.15; BasE inh: 2.0

How did NC(=S)Nc1ccc(OCc2ccccc2)cc1 do in these assays?
BasE inh: 0.1

How did Cn1c(NN)nc2c(c1=O)C1(CCCC1)Cc1ccccc1-2 do in these assays?
LANA-nucl inh: 0.4; BasE inh: -1.3

What do the screens show for `CC(C)OC(=O)c1ccc(N)cc1`?
LANA-nucl inh: -0.94; BasE inh: 1.0

What do the screens show for `O=C(CN1CCCCC1)Nc1ccc(I)cc1`?
LANA-nucl inh: 0.25

How did CCN(CC)C(=O)CSc1n[nH]c(=S)s1 do in these assays?
BasE inh: 0.3

Results for CCN(CC)S(=O)(=O)c1ccc(NC(=O)COC(=O)Cn2[nH]c(=O)c3ccccc3c2=O)cc1 ?
BasE inh: 3.2

What do the screens show for `OP(Oc1ccccc1)(Oc1ccccc1)=P(O)(Oc1ccccc1)Oc1ccccc1`?
LANA-nucl inh: -0.68; BasE inh: -1.5

How did CC1CCCN(C/C(O)=C(\C#N)c2nc3ccccc3[nH]2)C1 (stereo not given) do in these assays?
LANA-nucl inh: -0.22; BasE inh: 2.9

What do the screens show for `Cc1ccc(Cl)cc1-n1ncc2c(NCC3CCCO3)ncnc21` (stereo not given)?
LANA-nucl inh: -0.53; BasE inh: 0.7

How did C=C1N(c2ccccc2C)C(=O)OC1(C)C do in these assays?
LANA-nucl inh: 0.1; BasE inh: -2.1

Results for NC(=O)N/N=C/c1c(F)c(F)c(F)c(F)c1F ?
BasE inh: 0.8

Results for COc1cccc(-c2ccc(-c3noc(-c4cccnc4)n3)c(OC)n2)c1 ?
LANA-nucl inh: -0.025; BasE inh: 0.8

How did CCOc1ccc(C(N)=S)cc1OC do in these assays?
BasE inh: -1.0

Results for CCOC(=O)c1c[nH]c(=S)n1C ?
LANA-nucl inh: -0.18; BasE inh: 1.9

What do the screens show for `CCCn1c(=O)c2ccccc2n2c(Sc3nnnn3-c3ccccc3)nnc12`?
BasE inh: 0.4

Results for COC(=O)c1ccc(-c2nc(-c3ccccc3)cs2)cc1 ?
LANA-nucl inh: -0.37

Results for CCCN1CCN(C(=O)c2ccc(-n3c(-c4ccccc4)nc4cccnc43)cc2)CC1 ?
LANA-nucl inh: -0.71; BasE inh: 9.7

What do the screens show for `CN1C(C(=O)NCC2CCCO2)=CC(c2ccco2)=NS1(=O)=O` (stereo not given)?
LANA-nucl inh: 0.15; BasE inh: 1.9

What do the screens show for `COc1ccc2c(COC(=O)Cn3cnnn3)cc(=O)oc2c1`?
BasE inh: -0.7

Results for CCOC(=O)NC(=S)Nc1ccc(OC)cc1 ?
LANA-nucl inh: -1.2; BasE inh: 1.1

How did CCOC(=O)Cc1csc(-c2ncc(C(F)(F)F)cc2Cl)n1 do in these assays?
BasE inh: 3.0

How did CC1=NN(c2ccc(S(N)(=O)=O)cc2)C(=O)/C1=C\c1ccco1 do in these assays?
LANA-nucl inh: 0.38; BasE inh: 1.2

Results for CC(NC(=O)CSc1ccccc1)c1ccc(S(N)(=O)=O)cc1 (stereo not given) ?
BasE inh: 1.3

What do the screens show for `c1coc(C(CNc2ncnc3sc4c(c23)CCC4)N2CCCCC2)c1` (stereo not given)?
BasE inh: -3.9

How did CN(C1=CC2=CC(=C(C#N)C#N)CCC2CC1)C1CCCCC1 (stereo not given) do in these assays?
BasE inh: 13

Results for CCCCNC(=O)Cn1nc(-c2ccccc2)ccc1=O ?
LANA-nucl inh: -0.85; BasE inh: -0.3

Results for CC1CSC(N(C(=O)c2cnccn2)c2ccc(Cl)cc2)=N1 (stereo not given) ?
BasE inh: -0.3

How did CCCC(c1nnnn1CS(=O)(=O)c1ccc(C)cc1)N1CCC(C(N)=O)CC1 (stereo not given) do in these assays?
LANA-nucl inh: -0.045; BasE inh: -0.9

Results for O=C(OCc1ccccc1F)C1COc2ccccc2O1 (stereo not given) ?
BasE inh: 2.8

Results for NC(=O)CSc1ccccn1 ?
LANA-nucl inh: -0.56; BasE inh: 0.8

What do the screens show for `O=c1c2ccccc2[nH]c(=S)n1CCO`?
LANA-nucl inh: 1.5; BasE inh: -1.8

What do the screens show for `Cc1cc(C)nc(SCc2ccccc2C(=O)N2CCN(Cc3ccc(C#N)cc3)CC2)n1`?
BasE inh: 3.1

What do the screens show for `Cc1nn2c3ccccc3nc2n(-c2ccccc2)c1=O`?
LANA-nucl inh: -0.55; BasE inh: 2.4

Results for Cc1ccccc1CN(C)C(=O)c1ccc2ccccc2n1 ?
BasE inh: -0.7

Results for CC(C)NC(=O)c1ccoc1COc1ccccc1 ?
LANA-nucl inh: 0.2; BasE inh: -0.8

How did CCCCCn1c(NCc2ccc(N(C)C)cc2)nc2ccccc21 do in these assays?
LANA-nucl inh: -0.77; BasE inh: -0.1

What do the screens show for `CCCc1nnc(/N=C/c2cc(-c3ccccc3)oc2O)s1`?
BasE inh: 0.7

How did COC(=O)C1=C(C)Nc2nc3ccccc3n2C1c1ccccc1 (stereo not given) do in these assays?
LANA-nucl inh: -0.22; BasE inh: 1.5

How did O=C(NC1CCCCCC1)C1COc2ccccc2O1 (stereo not given) do in these assays?
LANA-nucl inh: -0.41; BasE inh: 2.4

Results for Cn1c(=O)c2[nH]c(SCC(=O)c3ccc(-c4ccccc4)cc3)nc2n(C)c1=O ?
BasE inh: 1.9

How did CCOC(=O)c1cc2c(C(F)(F)F)cc(-c3cccs3)nc2o1 do in these assays?
BasE inh: -3.9

How did CC1(C)CC(=O)C(C=Nc2ccc(OC(F)(F)F)cc2)=C(O)C1 do in these assays?
LANA-nucl inh: -1.4

Results for O=C(CN1N=C(c2ccccc2)CCC1=O)NCCC1=CCCCC1 ?
LANA-nucl inh: -0.77; BasE inh: 0.7

Results for O=C(Nc1ccc(Cl)cc1)C12CC3CC(CC(O)(C3)C1)C2 ?
BasE inh: -0.8

How did C/C(=C/C(=O)C(F)(F)F)N1CCN(Cc2ccccc2)CC1 do in these assays?
BasE inh: 0.2

What do the screens show for `CN1CC(=Nc2nonc2N)N(C)C1=O`?
LANA-nucl inh: -1; BasE inh: -2.2

How did Cc1ccc(C)c(N2CCN(C(=O)C34CC5CC(C3)CC(n3nnc(C)n3)(C5)C4)CC2)c1 do in these assays?
LANA-nucl inh: 0.018; BasE inh: 0.7

Results for COC(=O)C1=C(C)N(c2ccc(OC)cc2)C(=O)/C1=C\c1ccccc1O ?
LANA-nucl inh: -1.2; BasE inh: 2.0

Results for O=C(CCSc1nc2ccccc2o1)Nc1ccc(Br)cc1 ?
LANA-nucl inh: 0.55; BasE inh: -0.6

How did CCOC(=O)c1[nH]c(CSc2nnnn2-c2ccccc2C)c(C(=O)OCC)c1C do in these assays?
BasE inh: -6.2

Results for Cc1cc(C)n(C(C)CC(=O)Nc2ccc(CN3CCC(C)CC3)cc2)n1 (stereo not given) ?
LANA-nucl inh: -0.62; BasE inh: -1.1

Results for CCN1CCCC1CNC(=O)CCCOc1cc(=O)n(C)c2ccccc12 (stereo not given) ?
LANA-nucl inh: -0.67; BasE inh: 0.6

How did Cc1c(-c2ccccc2)c(=O)oc2cc(OCC#N)ccc12 do in these assays?
LANA-nucl inh: 0.016; BasE inh: -0.2

What do the screens show for `CC1CCCCN1CCNC(=O)c1nc(-c2cccnc2)no1` (stereo not given)?
LANA-nucl inh: -0.35; BasE inh: 0.9

How did CN(c1ccccc1)S(=O)(=O)c1ccc(C(=O)O)cc1 do in these assays?
LANA-nucl inh: 0.34; BasE inh: 0.7

What do the screens show for `Cc1ccc(C)c(OCCn2nnc3ccccc32)c1`?
LANA-nucl inh: -0.8; BasE inh: 2.1

What do the screens show for `COc1cc(/C(N)=N/O)cc(OC)c1OC`?
LANA-nucl inh: -0.68; BasE inh: 2.3

Results for N#Cc1c2c(c(Cl)n3c1nc1ccccc13)CCC2 ?
LANA-nucl inh: 0.003; BasE inh: -0.1

An excerpt from above in order of SMILES length, falling.
Results for CCN(CC)S(=O)(=O)c1ccc(NC(=O)COC(=O)Cn2[nH]c(=O)c3ccccc3c2=O)cc1 ?
BasE inh: 3.2

Results for CCCN1CCN(C(=O)c2ccc(-n3c(-c4ccccc4)nc4cccnc43)cc2)CC1 ?
LANA-nucl inh: -0.71; BasE inh: 9.7

How did CCOC(=O)c1[nH]c(CSc2nnnn2-c2ccccc2C)c(C(=O)OCC)c1C do in these assays?
BasE inh: -6.2

Results for COc1cccc(-c2ccc(-c3noc(-c4cccnc4)n3)c(OC)n2)c1 ?
LANA-nucl inh: -0.025; BasE inh: 0.8

What do the screens show for `c1coc(C(CNc2ncnc3sc4c(c23)CCC4)N2CCCCC2)c1` (stereo not given)?
BasE inh: -3.9

Results for O=C(Nc1ccc(Cl)cc1)C12CC3CC(CC(O)(C3)C1)C2 ?
BasE inh: -0.8

How did C/C(=C/C(=O)C(F)(F)F)N1CCN(Cc2ccccc2)CC1 do in these assays?
BasE inh: 0.2

Results for O=C(CN1N=C(c2ccccc2)CCC1=O)NCCC1=CCCCC1 ?
LANA-nucl inh: -0.77; BasE inh: 0.7

Results for NC(=O)N/N=C/c1c(F)c(F)c(F)c(F)c1F ?
BasE inh: 0.8

What do the screens show for `Cc1ccc(C)c(OCCn2nnc3ccccc32)c1`?
LANA-nucl inh: -0.8; BasE inh: 2.1

How did O=C(NC1CCCCCC1)C1COc2ccccc2O1 (stereo not given) do in these assays?
LANA-nucl inh: -0.41; BasE inh: 2.4

Results for CCOC(=O)c1c[nH]c(=S)n1C ?
LANA-nucl inh: -0.18; BasE inh: 1.9

Further results:
Results for O=C(CSc1nnc(-c2ccncc2)n1Cc1ccco1)OC1CCCCC1 ?
LANA-nucl inh: -1.4; BasE inh: -1.8

Results for NC(=O)C1(N2CCCCC2)CCN(c2ccc3nnc(-c4ccccc4)n3n2)CC1 ?
LANA-nucl inh: -1; BasE inh: -3.2

How did c1ccc(Cn2ncc3c(Nc4ccc5ccccc5c4)ncnc32)cc1 do in these assays?
BasE inh: 1.4

How did CN(CC(=O)Nc1ccc(F)cc1)C(=O)c1ccc(-c2ccc(F)cc2)o1 do in these assays?
BasE inh: 1.2

Results for COc1cc(/C=N/N2C(=O)C(CC(=O)O)SC2=Nc2c(C)n(C)n(-c3ccccc3)c2=O)ccc1O (stereo not given) ?
BasE inh: 2.7

What do the screens show for `N#CCOC(=O)c1cn(-c2ccccc2)nc1-c1ccccc1`?
BasE inh: 0.9

How did CCOC(=O)c1c[nH]c2ccc(OCC)cc2c1=O do in these assays?
LANA-nucl inh: 0.3; BasE inh: 3.4

What do the screens show for `COC(=O)C1(C(O)C(=O)c2ccc(C)cc2C)CCCCC1` (stereo not given)?
LANA-nucl inh: -0.26; BasE inh: -0.9

Results for CCOC(=O)CN1CCOCCN(CC(=O)OCC)CCOCC1 ?
LANA-nucl inh: 0.48; BasE inh: 1.0

How did COc1ccc(CCn2c(C)cc(C(=O)CN3CCOCC3)c2C)cc1 do in these assays?
BasE inh: 0.7

What do the screens show for `CNC(=S)Nc1cccc(Cn2cc(Cl)cn2)c1`?
LANA-nucl inh: -0.28; BasE inh: 0.6

Results for CCOC(=O)c1c(NC(=S)N2CCN(C(=O)c3ccco3)CC2)sc2c1CCCCCC2 ?
LANA-nucl inh: 0.49; BasE inh: 3.2

Results for Cc1cc(C)c(OCCCN2CCCC2)c(C)c1 ?
LANA-nucl inh: -0.58; BasE inh: -1.7

How did N#CC(C#N)=NNc1ccccc1C(N)=O do in these assays?
LANA-nucl inh: -0.47; BasE inh: 7.6

How did O=c1c2nnn(Cc3ccccc3)c2ncn1Cc1ccc(F)cc1 do in these assays?
LANA-nucl inh: -0.92; BasE inh: 1.9

Results for CNC(=O)N1CCn2cccc2C1C (stereo not given) ?
LANA-nucl inh: -1.6; BasE inh: 12

How did Nc1nc(CN2CCC(Cc3ccccc3)CC2)nc(Nc2ccccc2)n1 do in these assays?
LANA-nucl inh: 1.4; BasE inh: -0.8

What do the screens show for `CCOC(=O)C1=C(CC)Nc2ccccc2N=C1NC(=O)c1nc2nccc(C)n2n1`?
BasE inh: -3.7

Results for O=C1OCCC1OC(=O)C1(c2ccc(F)cc2)CCCC1 (stereo not given) ?
BasE inh: -1.6

What do the screens show for `Cc1cccc(NC(=O)CC2CCC2)c1`?
LANA-nucl inh: -0.78; BasE inh: 1.6

What do the screens show for `O=C(Nc1ncn[nH]1)c1ccc(S(=O)(=O)N2CCOCC2)cc1`?
BasE inh: -1.4

How did C/C(=C\c1ccc(C(=O)O)cc1)c1ccc2c(c1)C(C)(C)CCC2(C)C do in these assays?
LANA-nucl inh: -0.034; BasE inh: -2.9

What do the screens show for `c1cc2c(cc1C1=NCCC1)OCCO2`?
BasE inh: 2.1

How did Cc1cc(NC(=O)NCc2sccc2C)c(C(F)(F)F)o1 do in these assays?
LANA-nucl inh: -0.49; BasE inh: 0.5

What do the screens show for `COc1ccccc1NC(C)c1cc(Cl)ccc1O` (stereo not given)?
LANA-nucl inh: 0.47; BasE inh: -0.3

What do the screens show for `CCCCNC(=O)C1CC(=O)N(C2CCCC2)C1` (stereo not given)?
LANA-nucl inh: -1.5; BasE inh: 1.3

Results for O=C(CN1C(=O)S/C(=C\c2ccco2)C1=O)CN1C(=O)S/C(=C\c2ccco2)C1=O ?
LANA-nucl inh: 0.87; BasE inh: -1.7

What do the screens show for `Cc1ccc(C(=O)Nc2cc(=O)n(C)c(=O)n2C)cc1`?
LANA-nucl inh: -1.2; BasE inh: -0.4

How did CN(C(=O)C1CCCC1)C1CCS(=O)(=O)C1 (stereo not given) do in these assays?
LANA-nucl inh: -0.41; BasE inh: 0.9

Results for O=C(CCC(=O)N1CCC(c2ccccc2)=N1)N1CCN(S(=O)(=O)/C=C/c2ccccc2)CC1 ?
BasE inh: 1.2
